SARS PLP yeast = qHTS of Yeast-based Assay for SARS-CoV PLP. actives 0.19% (n = 330,000). S. cerevisiae expressing SARS-CoV PLpro, growth rescue; control for the full effect not named in the record. Potency, µM (highest dose often 32.9 µM), without a hit: at the highest dose activity, positive = growth rescue; note: 0% is about no effect; nearly all actives have a fitted effect of over 55% in size; growth read by luminescence after 48 h
Marburg entry inh = qHTS for inhibitors of binding or entry into cells for Marburg Virus | Marburg virus pseudotyped entry inhibition, cell reporter; control for the full effect not named in the record; about a third of the inactives were read at about 46 µM | Potency, µM (series often up to 37.8 µM), for inactives: at the top dose activity change, negative = inhibition, usual class: inhibitors | actives 1.8% (n = 300,000) | AID 540276, 2011; active = well fitted inhibition curve with a large enough effect; inconclusive = small, poorly fitted or top-dose-only effect, or effect the other way; inactive = flat fitted curve, though single readings scatter; tested in HEK293 cells; about a fifth of its hits are not listed in these tables; note: % is set by controls: 0 for no effect and ±100 for the full control effect; luciferase read-out
Cruzain Triton = qHTS Assay for Promiscuous and Specific Inhibitors of Cruzain (with detergent) | Cruzipain (Trypanosoma cruzi), P25779 | purified cruzain, Z-FR-AMC fluorescence, 0.01% Triton | Potency, µM, for inactives: max response, negative = inhibition, hits mostly inhibitors | actives 0.43% (n = 200,000); active = well fitted curve in the direction sought with a large enough effect; inconclusive = small, poorly fitted or top-dose-only effect, or another doubt; inactive = no such curve, though single readings can be large; an effect the other way counts as inactive or inconclusive;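 note: plate controls were neutral wells for no effect and buffer without enzyme for full effect; nearly all actives have a fitted effect of over 40% in size; top concentration of the series not given in the record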
Target sequence (P25779 123-467 limits assumed): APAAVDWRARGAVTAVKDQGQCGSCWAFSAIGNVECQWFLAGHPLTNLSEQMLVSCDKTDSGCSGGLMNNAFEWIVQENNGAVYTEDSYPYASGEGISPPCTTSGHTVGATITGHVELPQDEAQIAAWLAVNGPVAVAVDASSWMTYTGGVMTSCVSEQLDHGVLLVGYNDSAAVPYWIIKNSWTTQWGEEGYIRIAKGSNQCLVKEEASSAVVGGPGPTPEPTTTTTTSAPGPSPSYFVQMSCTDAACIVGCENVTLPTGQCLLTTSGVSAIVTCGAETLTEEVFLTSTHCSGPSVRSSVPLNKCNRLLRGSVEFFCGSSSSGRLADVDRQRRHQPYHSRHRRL
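Detergent-containing arm of a paired screen for aggregation-based inhibition: 0.01% Triton X-100 present. Cruzain at 1.5 nM cleaved 2 uM Z-FR-AMC at pH 5.5 with 5 mM DTT; AMC fluorescence gain over 60 s measured activity.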
Cruzain inh noDet = qHTS Assay for Promiscuous and Specific Inhibitors of Cruzain (without detergent); Cruzipain (Trypanosoma cruzi), P25779; actives 2.3% (n = 200,000); purified cruzain, Z-FR-AMC fluorescence, no detergent; Potency, µM, without a hit: max response, negative = inhibition, hits mostly inhibitors; AID 1476, 2009; active = well fitted curve in the direction sought with a large enough effect; inconclusive = small, poorly fitted or top-dose-only effect, or another doubt; inactive = no such curve, though single readings can be large; an effect the other way counts as inactive or inconclusive;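 note: plate controls were enzyme without inhibitor for no effect and buffer without enzyme for full effect; nearly all actives have a fitted effect of over 40% in size; top concentration of the series not given in the record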
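Purified cruzain at 1.5 nM, pre-incubated 15 min with compound at room temperature in 100 mM sodium acetate pH 5.5, 5 mM DTT, 0.00005% Triton X-100. Reaction started with 2 uM Z-FR-AMC; AMC fluorescence increase over 60 s gives rate.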
2A StopGo = High Throughput Screening for Foot and Mouth Disease Virus Antivirals | human cells with a luciferase reporter of 2A StopGo recoding; control for the full effect not named in the record | Potency, µM (doses to about 57.9 µM), for the others: top-dose signal change, negative = less light | actives 1.2% (n = 410,000) | AID 1159524, 2015; active = well fitted falling curve with a large enough effect; inconclusive = small, poorly fitted or top-dose-only effect; inactive = no such curve, though single readings can be large or run the other way; tested in HEK293T cells; note: % is set by controls: 0 for no effect and ±100 for the full control effect; nearly all actives have a fitted effect of over 45% in size; luciferase light after 4 h
NS1 function inh = qHTS Assay for Inhibitors of Influenza NS1 Protein Function. actives 0.4% (n = 270,000). S. cerevisiae slowed by influenza A NS1, growth recovery by OD600. AID 2326, 2010. Potency, µM (doses to about 46.1 µM), inactives show top-dose activity, positive = more growth; note: actives are rising curves; nearly all actives have a fitted effect of over 50% in size
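Recovery from NS1-induced slow growth read by OD600 in budding yeast switched to galactose assay medium (pH 6.0, -URA) at 1:100 dilution. Compound 23 nl per well; the matching strain lacking NS1 serves as control.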
Lassa entry inh = qHTS for Inhibitors of binding or entry into cells for Lassa Virus | Lassa virus pseudotype entry inhibition, cell reporter; control for the full effect not named in the record | Potency, µM (doses to about 37.9 µM), for the others: top-dose activity change, negative = inhibition, most hits filed as inhibitors | actives 1.2% (n = 300,000) | AID 540256, 2011; active means well fitted inhibition curve with a large enough effect; inconclusive means small, poorly fitted or top-dose-only effect, or effect the other way; inactive means flat fitted curve, though single readings scatter; tested in HEK293 cells; note: % is set by controls: 0 for no effect and ±100 for the full control effect; nearly all actives have a fitted effect of over 50% in size; luciferase read-out
RE007 growth inh = qHTS Assay for Inhibitors of the HIV-1 protein Vpr; S. pombe RE007 Vpr strain, BacTiter-Glo ATP luminescence, 24 h; control for the full effect not named in the record; Potency, µM (highest dose often 92.2 µM), for inactives: at the top dose activity change, negative = less growth; actives 0.21% (n = 360,000); active = well fitted falling curve with a large enough effect; inconclusive = small, poorly fitted or top-dose-only effect; inactive = no such curve, though single readings can be large or run the other way;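 note: % is set by controls: 0 for no effect and ±100 for the full control effect; nearly all actives have a fitted effect of over 50% in size; the assay follows cell death caused by Vpr and the record does not say whether a fall means rescue or toxicity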
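Fission yeast strain RE007, carrying one chromosomally integrated HIV-1 vpr copy, was seeded at OD 0.01 in PMG+AL medium with 23 nL pinned compound. After 24 h at 30 °C and 99% humidity, viability was read by BacTiter-Glo luminescence.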
* hit, by the source's call; ? = inconclusive; . = no result given; & = joins results of further samples; [ ] = another dose, or the depositor's remark. Unless noted, calls come from the whole dose curve; as a rule, active means well fitted rising curve with a large enough effect; inconclusive means small, poorly fitted or top-dose-only effect; inactive means no such curve, though single readings can be large or run the other way. Potency is the fitted concentration of half-maximal effect.

SMILES	SARS PLP yeast	Marburg entry inh	Cruzain Triton	Cruzain inh noDet	2A StopGo	NS1 function inh	Lassa entry inh	RE007 growth inh
c1cc(-c2cn(C[C@H]3CC[C@@H]([C@@H]4CC[C@H](Cn5cc(-c6ccsc6)nn5)O4)O3)nn2)cs1	-4%	.	.	.	-15%	-27%	.	-4%
COc1ccc(N(CC(=O)NCc2ccc(F)cc2)C(=O)Cn2nnc(-c3ccc(C)o3)n2)cc1OC	-1%	0%[46.1 µM]	.	.	-3%	-13%	9%[46.1 µM]	4%
CNc1nc(-c2c[nH]c3ccccc23)cs1	-13%	6%	-4.8%	?	15%	?	0%	-23%
COc1cccc(C(=O)NC(=S)Nn2cnnc2)c1OC	-1%	6%[46.1 µM]	.	.	1%	.	-4%	7%
CCC(=O)Nc1ccc(N2CCN(Cc3ccccc3F)CC2)cc1	3%	25%	3.7%	2%	6%	0%	14%	2%[3.69 µM]
CCn1c(=O)c(C(=O)Nc2cccnc2)c(O)c2ccccc21	.	-8%&0%	.	.	.	-35%	12%	-10%
CN1C(=O)c2ccc(C(=O)NC3CCCCC3)cc2C1=O	4%	?	10%	-1%	54%[activator]	4%	17%	5%
Cc1ccc(/C=C2/SC(=S)N(CCC(=O)NCCCN3CCOCC3)C2=O)cc1	-3%	?	.	.	15%	14%	1%	-20%
COc1cc(Cl)ccc1OCc1cc(C(=O)NC2CCc3ccccc32)no1 (stereo not drawn)	-4%	-3%	.	.	-10%	-1%	-13%	-9%
N#C/C(=C\c1ccco1)c1nc2ccccc2s1	4%	?	-19%	12%	13%	-15%	?	-26%
NC(N)=N/N=C/c1ccc(OCc2ccc(Cl)cc2)cc1	-10%	?	-7.1%	-9%	-16%	-57%	?	9%
O=C(Nc1ccc(Br)c(Br)c1)C1CCCO1 (stereo not drawn)	.	?	.	.	43%[activator]	.	7%	-10%
O=C(N/N=C/c1c(O)n(Cc2ccccc2)c(=O)c2ccccc12)c1cccnc1	?	-28%[46.1 µM]	.	.	-15%	.	-4%	-15%
CCCCNC(=O)CCc1c(C)nc2c(c(C)nn2-c2ccccc2)c1C	-3%	11%&11%[46.1 µM]	-3.3%	-5%	0%&-21%	-5%	-2%[46.1 µM]	-2%
CC1CCCCN1S(=O)(=O)c1ccc(NC(=O)c2cccs2)cc1 (stereo not drawn)	-23%	-10%	-12%	7%	.	-39%	?	6%
O=C(CN1C(=O)NC2(CCCC2)C1=O)Nc1ccc(S(=O)(=O)N2CCOCC2)cc1	1%	?	.	.	-3%	.	16%	6%
CCOC(=O)C(Cc1ccc(N)cc1)N1C(=O)c2ccccc2C1=O (stereo not drawn)	-1%	.	.	.	-23%	11%	.	-18%
CC(NC(=O)CNC(=O)c1ccccc1Br)c1cccs1 (stereo not drawn)	1%	1%[46.1 µM]	.	.	48%[activator]	.	4%	-11%
CCn1c(=O)c2cc(C(=O)NCCN3CCOCC3)sc2c2ccccc21	5%	.	-11%	-4%	-1%	-24%	.	-6%
O=C(c1cccs1)N1CCN(Cc2cn[nH]c2-c2ccc(F)cc2F)CC1	8%	?	.	.	-24%	-2%	-14%[46.1 µM]	-8%
O=C(CCc1nnc(COc2ccccc2)o1)NC1(c2ccccc2)CC1	1%	.	.	.	47%[activator]	-4%	.	1%
Cc1ccc(N(CCC(=O)O)S(=O)(=O)c2cccc(C(F)(F)F)c2)cc1	-2%	8%[46.1 µM]	.	.	6%	.	?	4%
Cn1c(=O)c2c(=O)cc(NNC(=O)C(C)(C)C)[nH]c2n(C)c1=O	-2%	2%	1.5%	4%	-9%	24%	5%	-13%
C=CCn1c(N)cc(=O)nc1SC(C)C(=O)Nc1cccc2ccccc12 (stereo not drawn)	14%	2%	-13%	-18%	3%	16%	1%	-4%
COc1cccc(-c2nc(-c3ccc(NC(=O)c4cccs4)cc3)no2)c1	-1%	2%	5.5%	-5%	3%	-8%	-3%	5%
Cc1ccc(OCCOCCNC(C)(C)C)c([N+](=O)[O-])c1	11%	?	-1.3%	8%	-14%	8%	-4%	-17%
Cc1cccc(OCc2nnc(SC(C)C(=O)Nc3ccc(N4CCOCC4)cc3)o2)c1 (stereo not drawn)	0%	2%[46.1 µM]	.	.	-15%	.	-18%[46.1 µM]	7%
CC(=O)c1nn(-c2ccc(Br)cc2)cc1C(=O)c1ccccc1	9%	?	-0.6%	?	-18%	12%	10%	8%
Cc1ccc(-n2ncc3c(=O)[nH]c(SCC(=O)N4CCOCC4)nc32)cc1	4%	-19%	0.9%	-11%	13%	9%	?	-14%
COc1ccc(/C=C/C(=O)Nc2cc(C)nn2-c2nc3ccccc3[nH]2)cc1	-13%	?	-29%	?	12%	-8%	-4%	25%
CCC1CN(C(=O)N2CCC(C(=O)NCCc3ccc(OC)cc3OC)CC2)c2ccccc2O1 (stereo not drawn)	1%	.	.	.	?	-3%	.	9%
COc1ccc(CCNC(=O)CCCn2c(=O)c3cccn3c3cccnc32)cc1OC	.	.	-1.3%	1%	-11%	.	2%[46.1 µM]	.
CCOc1ccc(CCNC(=O)CCc2nc3ccccc3[nH]2)cc1OCC	-3%	0%[46.1 µM]	.	.	3%	.	5%[46.1 µM]	-17%
CCC(CC)C(=O)OCC(=O)Nc1ccc(S(=O)(=O)N2CCOCC2)cc1OC	6%	2%	2.8%	?	0%	-8%	1%	6%
CC1=NNC(=O)C1CC(=O)N/N=C/c1ccncc1 (stereo not drawn)	1%	13%[46.1 µM]	.	.	-13%	4%	8%	0%
CC(C(=O)Nc1ccccc1)N1CCN(c2ccccn2)CC1 (stereo not drawn)	2%	.	.	.	4%	1%	.	-5%
Cc1ccc(NCN2C(=O)C3C4C=CC(C4)C3C2=O)cc1 (stereo not drawn)	?	?	0.3%	-4%	2%	-1%	4%	-1%
CCCOc1ccc(CN(C)c2ncnc(N)n2)cc1	18%	?	.	.	-3%	-4%	?	-4%
O=C(Nc1nnc(S(=O)(=O)N2CCOCC2)s1)c1ccc(F)cc1	-5%	.	-0.4%	-3%	5%&26%	10%	12%[46.1 µM]	11%
COc1ccccc1N1CCN(C(=O)CN(c2ccc(C)c(C)c2)S(C)(=O)=O)CC1	-1%	13%	2.1%	?	-26%	-5%	-1%	2%
Cc1ccnc(NC(=O)CNC(=O)c2ccco2)c1	0%	?	.	.	47%[activator]	.	21%	10%
Cc1ccc(CCNC(=O)c2cc(-c3ccc(Cl)cc3)n[nH]2)cc1	.	.	-0.7%	?	-6%	.	-2%[46.1 µM]	.
O=C(Nc1ccccc1)Nc1ccccc1-n1ccnc1	-1%	9%	.	.	3%	4%	20%	12%
COC(=O)/C=C1\OC(c2ccccc2)=CC1=O	-95%	8%	-3.8%	?	.	-35%	1%	.
CCN1C(=NCCc2cccs2)N[C@@H](c2cccs2)C(C(=O)OC)=C1C	-5%	.	.	.	-22%	9%	.	-13%
CC1(C)C([N+](=O)[O-])C(c2ccc(O)cc2)NC(c2ccc(O)cc2)C1[N+](=O)[O-] (stereo not drawn)	8%	5%	-3.3%	-1%	-9%	9%	?	13%
O=C(Cn1cncn1)N/N=C/c1c2ccccc2cc2ccccc12	-4%	-4%[46.1 µM]	-1.6%	-29%	-18%	-5%	10%	-8%
Cc1nn2c(=O)cc(COC(=O)c3ccc(NC(=O)C(C)(C)C)cc3)nc2s1	-3%	.	.	.	?	-2%	.	8%
O=C(CCSc1ccc(F)cc1)Nc1ccc(-n2cnnn2)cc1	2%	-21%[46.1 µM]	-3.2%	-12%	?	-9%	28%	4%
COc1ccc(NC(=O)c2cn(CC(C)C)c(=O)c3cc(OC)c(OC)cc23)cc1Cl	.	?	-2.7%	0%	-15%	.	-7%[46.1 µM]	.
Remaining list, next part
SMILES	SARS PLP yeast	Marburg entry inh	Cruzain Triton	Cruzain inh noDet	2A StopGo	NS1 function inh	Lassa entry inh	RE007 growth inh
CN1CC(=O)Nc2ccc(F)cc2C1=O	.	-13%[46.1 µM]	3.9%	1%	-18%	3%	-3%	-4%
O=C(CC1SCCNC1=O)Nc1ccc(F)c(Cl)c1 (stereo not drawn)	0%	5%	.	.	0%	1%	?	-1%
Cc1ccc(NC(=O)Cn2c(=O)n(Cc3nc(-c4ccccc4)no3)c(=O)c3ccccc32)cc1C	.	.	-2.7%	-21%	?	.	9%[46.1 µM]	.
O=C(CN1CCCC1)Nc1ccc(S(=O)(=O)N2CCCCC2)cc1	-2%	?	.	.	3%	2%	2%[46.1 µM]	6%
CNC(=S)/N=C/NOCc1ccc(Cl)cc1Cl	-16%	?	.	.	?	.	?	-27%
CCc1ccccc1NC(=O)CCNS(=O)(=O)c1ccc2c(c1)CCC(=O)N2	-3%	.	.	.	-12%	-6%	.	-14%
O=C(CCc1ccccc1)C(=O)N1CCCC(C(=O)c2cccc(Cl)c2)C1 (stereo not drawn)	-2%	6%[46.1 µM]	.	.	-26%	8%	-3%	4%
NC(=O)NC(=O)COC(=O)CN1C(=O)C2CCCCC2C1=O (stereo not drawn)	?	?	3.4%	-2%	-7%	8%	14%	5%
Cc1c(NC(=O)COC(=O)Cc2ccc(F)cc2)c(=O)n(-c2ccccc2)n1C	0%	19%[46.1 µM]	.	.	7%	.	16%	5%
CC(Oc1cccc(Br)c1)C(=O)N1CCCN(C)CC1 (stereo not drawn)	13%	?	.	.	-14%	18%	-12%	-7%
Cc1cc2oc(=O)cc(-c3ccccc3)c2c(C)c1-c1ccc(CO)cc1	-30%	.	1.2%	?	?	.	.	5%

Source: PubChem BioAssay (National Center for Advancing Translational Sciences (NCATS))
